High-throughput results from PubChem BioAssay.
ClpP mod = qHTS Assay for Activators of ClpP. ATP-dependent Clp protease proteolytic subunit (Bacillus subtilis (strain 168)), P80244. purified B. subtilis ClpP, FRET peptide cleavage, 20 min. Potency, µM (top dose mostly 57.5 µM), inactives show at the highest dose activity change, negative = active. 340,000 tested, 1.9% active. AID 651965, 2013; active = well fitted falling curve with a large enough effect; inconclusive = small, poorly fitted or top-dose-only effect; inactive = no such curve, though single readings can be large or run the other way; further: the source files actives as falling curves though it sought activators and does not explain the sign; nearly all actives have a fitted effect of over 65% in size; many hits overshoot -100%
Target sequence (P80244 whole entry, looked up): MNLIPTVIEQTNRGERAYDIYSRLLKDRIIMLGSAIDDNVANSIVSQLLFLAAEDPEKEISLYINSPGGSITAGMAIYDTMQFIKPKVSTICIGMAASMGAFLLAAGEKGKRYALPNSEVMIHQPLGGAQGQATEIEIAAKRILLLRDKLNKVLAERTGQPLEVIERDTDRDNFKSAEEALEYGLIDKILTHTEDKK
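Purified B. subtilis ClpP, 10 microg/mL final in Tris/HCl pH8 with KCl, BSA, glycerol and Tween-20, cleaved an Abz/nitrotyrosine-quenched decapeptide. Fluorescence (ex 320, em 430) was read at 0 and 20 min at room temperature. Delta was normalized to 5.8 microM ADEP and DMSO/no-enzyme controls.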
PINK1 modulator = PINK1 expression modulation | PINK1 immunofluorescence, high-content cytometry, 24 h | Potency, µM (series often up to 76.6 µM), without a hit: top-dose activation (PINK1 increase), most hits filed as activators | 410,000 tested, 0.2% active | AID 624263; active = well fitted activation curve with a large enough effect; inconclusive = small, poorly fitted or top-dose-only effect; inactive = flat fitted curve, though single readings scatter; cell line not stated here;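 further: % of control where 0% means no effect; nearly all actives have a fitted effect of over 65% in size; a mitochondrial uncoupler was the plate control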
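Decision-based qHTS: stable cells, 24 h exposure to five compound concentrations, CCCP as control. Fixed cells stained for PINK1 plus nuclear, mitochondrial and cell markers, cytometer read.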
Active calls of the source: *; ? = inconclusive. Potency means the concentration at half of the fitted maximal effect.

#	Molecule	ClpP mod	PINK1 modulator
1	COc1ccccc1N1CCN(C(c2ccccc2)c2nnnn2Cc2ccccc2)CC1 (stereo not given)	1.5%	-0.3%
2	Cc1cc(C)c(NC(=O)C(=O)NCC(c2cccnc2)N2CCN(c3ccccc3F)CC2)c(C)c1 (stereo not given)	-0.5%	5.0%
3	COc1ccc(N2CCN(C(=O)c3noc4c3CCCCC4)CC2)cc1	-4.9%	-8.8%
4	O=C(CCC1N=C2c3ccccc3N=C(SCc3ccccc3Cl)N2C1=O)NCc1cccs1 (stereo not given)	0.0%	8.3%
5	O=C(c1cc2c(Cl)nc3ccccc3c2s1)N1CCCCC1	-1.8%	10%
6	O=C(CCS(=O)(=O)c1nc(-c2cccs2)cc(C(F)(F)F)n1)Nc1ccc(F)c(Cl)c1	22µM*	3.6%
7	CCc1ccc(NC(=O)c2cc3nc(-c4ccc(C)cc4)cc(C(F)(F)F)n3n2)cc1	-0.3%	1.4%
8	CC(CNC(=O)C1CCN(Cc2cc3ccccc3n2Cc2ccccc2)CC1)c1ccccc1 (stereo not given)	-8.7%	2.0%
9	COc1ccc(Br)cc1CNC(=O)c1ccc2c(c1)nc1n2CCC(C)C1 (stereo not given)	0.7%	0.9%
10	C=C(C)[C@@H]1C2=CC(C(=O)OC)=C(C[C@@H](C(=C)C)[C@H]3O[C@H]3C3=C[C@H]1OC3=O)O2	-4.1%	-0.4%
11	COc1cc(NC(=O)c2cc3ccc4cccnc4c3[nH]2)cc(OC)c1OC	-2.3%	-12%
12	CCN(CC)c1nc2c(-c3cccc(Br)c3)nnn2c2ccccc12	-19%	-0.4%
13	COc1ccccc1CNC(=O)c1ccc2c(c1)nc(C)n2-c1ccccc1OC	-2.4%	0.8%
14	COc1ccc(-c2oc3ncn4nc(-c5ccc(Cl)cc5)nc4c3c2-c2ccc(OC)cc2)cc1	-7.0%	-5.5%
15	CSc1nc(Nc2cccc(C)c2)c(C#N)c(-c2ccccc2)n1	-7.2%	1.9%
16	COc1ccc(-n2c(CC3C(=O)Nc4ccc(C)cc43)nc3ccccc3c2=O)cc1 (stereo not given)	-0.9%	4.6%
17	C=C1C=C(C)n2ncc(C(=O)Nc3ccccc3O)c2N1	-5.9%	1.8%
18	NCCCCCc1nnc(SCc2ccc(F)cc2)o1	-3.3%	0.0%
19	N#Cc1ccc(OC(=O)c2cc(-c3ccc(Cl)cc3)on2)cc1	0.8%	2.2%
20	O=[N+]([O-])c1cc(-c2nc(-c3ccccc3)no2)ccc1NCc1ccco1	0.8%	?
21	Cc1cccc(NC(=O)Nc2nnc(N(C)C3CCCCC3)s2)c1C	-2.2%	4.1%
22	Cc1cc(C)c2sc(NC(=O)c3ccc(S(=O)(=O)N4CCCC4)cc3)nc2c1	-3.5%	-4.4%
23	CCn1cc2nc(SCc3ccccc3)n(Cc3ccc(C)cc3)c(=O)c2n1	-1.3%	4.4%
24	CCC1CCCCN1CCCNC(=O)c1[nH]c2ccccc2c1Sc1ccc(Cl)cc1 (stereo not given)	-6.1%	-1.2%
25	Cc1ccc(NC(=O)C2CCN(S(=O)(=O)c3c(C)noc3C)CC2)c(C)c1	-0.8%	1.1%

Overlap with the part before: 3 entries, then new ones.
#	Molecule	ClpP mod	PINK1 modulator
23	CCn1cc2nc(SCc3ccccc3)n(Cc3ccc(C)cc3)c(=O)c2n1	-1.3%	4.4%
24	CCC1CCCCN1CCCNC(=O)c1[nH]c2ccccc2c1Sc1ccc(Cl)cc1 (stereo not given)	-6.1%	-1.2%
25	Cc1ccc(NC(=O)C2CCN(S(=O)(=O)c3c(C)noc3C)CC2)c(C)c1	-0.8%	1.1%
26	Cc1ccc(NC(=O)Cn2cc(C(=O)C3CC3)c3ccccc32)cc1C	0.6%	5.6%
27	CCn1c(CNC(=O)C23CC4CC(CC(C4)C2)C3)nnc1SCC(=O)Nc1ccc(C)cc1	1.8%	0.0%
28	Cc1c(C2=CCN(S(=O)(=O)c3cccc(Cl)c3)CC2)c2ccccc2n1CC(=O)N1CCCC1	-22%	1.3%
29	CN1CC(=O)N(CC(=O)Nc2ccc(Cl)c(C(F)(F)F)c2)c2ccccc2C1=O	-0.8%	1.3%
30	CCc1cccc(C)c1NC(=O)CCn1c(=O)c2cccn2c2ccccc21	-12%	-0.9%
31	COc1ccc(NC(=O)Cn2c(=O)n(-c3ccccc3)c(=O)c3c4c(sc32)CCCC4)cc1	-2.9%	4.2%
32	CN(C)CCCNc1cc(N2CCN(C3CCCCC3)CC2)c2noc3c2c1C(=O)c1ccccc1-3	-0.6%	1.1%
33	CC1=C(C(=O)Nc2ccc(F)cc2)C(c2ccc(N(C)C)cc2)NC(=O)N1 (stereo not given)	1.8%	2.3%
34	COc1ccc(CNC(=O)c2c(O)nc3cc(C)ccn3c2=O)cc1	?	-0.2%
35	Cc1ccc(C2NC(=O)c3n[nH]c(-c4cccs4)c32)cc1 (stereo not given)	-5.8%	-0.1%
36	COc1ccc(CN2C(=O)c3ccccc3C2c2nnnn2C(C)C)cc1OC (stereo not given)	0.5%	0.7%
37	COc1ccc(S(=O)(=O)c2cnc3ccc(Cl)cc3c2N2CCCCC2C)cc1 (stereo not given)	-0.5%	10.0%
38	CCN(CC)S(=O)(=O)c1ccc2c(c1)N(CC(=O)NCCc1ccccc1)C(=O)CO2	-2.0%	0.9%
39	COc1ccc(S(=O)(=O)N2CCC(N3CCN(Cc4ccc(F)cc4)C(=O)C3=O)CC2)cc1	0.4%	1.6%
40	Cc1cccc(NC(=O)C2CCCN(S(=O)(=O)c3ccc4c(c3)oc(=O)n4C)C2)c1C (stereo not given)	2.2%	1.4%
41	COc1ccc(CNC(=O)c2cnc(N3CCCC3)nc2C)cc1	?	0.6%
42	N#Cc1nc(/C=C/c2ccc(F)cc2)oc1N1CCCCCC1	4.3%	0.5%
43	CN(CC(=O)Nc1ccc(Cl)cc1F)S(=O)(=O)c1ccc2c(c1)n(C)c(=O)c(=O)n2C	-5.2%	0.4%
44	COc1ccccc1/C=C(\C#N)C(=O)NCC1CCCO1 (stereo not given)	-6.9%	0.6%
45	Cc1ccc(-c2cc3ncc4c(n3n2)-c2cc(F)ccc2OC4)cc1	-5.1%	0.7%
46	CCOC(=O)C1CCN(C(=O)c2ccc3c(c2)sc2nc(-c4ccc(C)cc4)cn23)CC1	-6.0%	0.4%
47	Cc1cccc(C(=O)N2CCc3cc(CNC(=O)c4ccnn4C)ccc32)c1	-0.2%	2.6%
48	COc1ccccc1C(=O)Nc1nnc(SCc2cc(=O)c3ccccc3[nH]2)s1	-0.1%	15%
49	Cc1cc(C(F)F)n2nc(C(=O)Nc3ccc(C(C)C)cc3)nc2n1	-2.5%	0.8%
50	CC(Oc1ccccc1)C(=O)Nc1ccccc1C(=O)OCc1cc(=O)n2nc(C(C)C)sc2n1 (stereo not given)	?	2.3%

At a glance, 3 of the compounds above.
#	Molecule	ClpP mod	PINK1 modulator
48	COc1ccccc1C(=O)Nc1nnc(SCc2cc(=O)c3ccccc3[nH]2)s1	-0.1%	15%
49	Cc1cc(C(F)F)n2nc(C(=O)Nc3ccc(C(C)C)cc3)nc2n1	-2.5%	0.8%
50	CC(Oc1ccccc1)C(=O)Nc1ccccc1C(=O)OCc1cc(=O)n2nc(C(C)C)sc2n1 (stereo not given)	?	2.3%

The listing continues:
#	Molecule	ClpP mod	PINK1 modulator
51	Cc1oc(-c2ccccc2)nc1CNC(=O)NC1CCCCC1	-3.3%	0.9%
52	CCN1C(=O)[C@H]2[C@H]3[C@H](O)[C@H](O)CC(=O)[C@@H]3CC[C@H]2C1=O	-0.9%	0.8%
53	CCCCC(=O)OCc1cc(=O)n2nc(C3CCCCC3)sc2n1	-6.6%	-0.1%
54	CCCOc1ccc(-c2nonc2NC(=O)c2cc(OC)c(OC)c(OC)c2)cc1OCCC	-3.8%	3.5%
55	CC(=O)N1CCc2cc(CNC(=O)Nc3ccccc3C(F)(F)F)ccc21	-3.5%	-1.5%
56	COc1ccc(N2CC(NC(=O)COc3ccc(F)cc3)CC2=O)cc1OC (stereo not given)	-1.7%	-1.1%
57	Cc1cccc2c1-c1sc(C(=O)NCCCN3CCN(c4cccc(Cl)c4)CC3)cc1CO2	3.7%	-0.6%
58	CCCN(CCC)CCCNC(=O)Cn1ncc2c3ccccc3n(Cc3ccccc3)c2c1=O	-15%	1.8%
59	CCN(CC)C(=O)Cn1cc(SCC(=O)Nc2cccc(C)c2)c2ccccc21	1.4%	0.7%
60	CN1CCN(c2cccc3c2S(=O)(=O)N[C@@H](Cc2ccccc2)CO3)CC1	-3.2%	-0.5%
61	COc1ccc(C2=C(c3ccccc3)OC(OC)c3cc(F)ccc32)cn1 (stereo not given)	-7.6%	1.1%
62	O=C(CCC1N=C2c3ccccc3N=C(SCc3ccc(F)cc3)N2C1=O)NCc1ccc(F)cc1 (stereo not given)	4.7%	0.3%
63	O=S(=O)(Nc1nc2n(n1)C(c1ccc(F)cc1)C=C(c1ccc(Cl)cc1)N2)c1ccccc1 (stereo not given)	13%	-1.0%
64	CCN(Cc1cccc(S(=O)(=O)O)c1)c1ccc(C(=C2C=CC(=[N+](CC)Cc3cccc(S(=O)(=O)O)c3)C=C2)c2ccc(O)cc2S(=O)(=O)O)cc1	-3.2%	4.5%
65	CCOC(=O)C1CCCN(C(=O)c2nn(-c3ccc(C)cc3)c(=O)n(C)c2=O)C1 (stereo not given)	2.7%	0.0%
66	Cc1c(NC(=O)Nc2ccc(Br)cc2F)sc2nc3n(c(=O)c12)CCC(C)CC3 (stereo not given)	-1.9%	2.1%
67	CCC(C(=O)NCCc1ccc(SC)cc1)n1nc(C)c2sc3ccccc3c2c1=O (stereo not given)	-13%	2.2%
68	Cc1cccc(CCNC(=O)c2nc(-c3ccc(Cl)cc3)n3c2CCCCC3)c1	-19%	4.7%
69	COCCn1c(SCC(=O)Nc2cc(Cl)ccc2OC)nc2c([nH]c3ccccc32)c1=O	-2.4%	-4.0%
70	COc1ccc(-c2noc(CCCC(=O)Nc3cccc(Cl)c3C)n2)cc1	-2.0%	5.5%
71	Cc1oc2ncnc(N3CCCCC3)c2c1C(=O)NCC1CCN(Cc2cccc(F)c2)CC1	0.9%	1.5%
72	O=C(Nc1ccccc1F)C(c1ccccc1)N1Cc2ccccc2C1=O (stereo not given)	0.1%	3.0%
73	CCOCCc1nn2c(=O)cc(COC(=O)c3cccs3)nc2s1	-3.6%	1.6%
74	CNc1oc(/C=C/c2cc(OC)c(OC)c(OC)c2)nc1C#N	4.3%	0.2%
75	COc1nc(C#N)nc(N2CCCC2)n1	1.7%	0.2%

Next structures.
#	Molecule	ClpP mod	PINK1 modulator
76	CCOc1ccccc1NC(=O)CSc1nnc(N)s1	-1.0%	4.1%
77	Cc1ccc2cc(CN(Cc3ccco3)Cc3nnnn3Cc3ccco3)c(=O)[nH]c2c1	-13%	-0.4%
78	Cc1ccc2cc3cc(C(=O)N4CCN(c5ccccc5)CC4)oc3nc2c1	-5.9%	-0.3%
79	COc1ccc(-c2cc3c(o2)CCCC3OCCN2CCOCC2)cc1 (stereo not given)	5.0%	0.3%
80	CC(=O)c1ccc(NC(=O)Cn2nc(N3CCN(c4ccccc4)CC3)ccc2=O)cc1	-0.1%	-0.4%
81	O=c1oc(=S)oc2c1[C@H](c1ccc(Cl)cc1)O[C@H](C1CC1)C2	-1.6%	0.5%
82	CCOC(=O)c1c(NC(=O)COc2cc(C)ccc2C(C)C)sc(C)c1C	-8.6%	-0.3%
83	COc1cccc(C(=O)Oc2c(Sc3ccc(C)cc3)c(C)nn2C(C)(C)C)c1OC	-2.5%	?
84	CCC1=Nc2cc(C(=O)NCCc3ccc(OC)c(OC)c3)ccc2Sc2ccccc21	-1.0%	2.6%
85	Cc1cccc(NC(=O)N2CCC(CN3CCC(C)CC3)CC2)c1C	0.8%	-1.6%
86	COc1ccc(-n2c(SCC(=O)Nc3ccc(Cl)c(C)c3)nc3n[nH]c(C)c3c2=N)cc1	63%	2.3%
87	Cc1ccc(C(=O)CSc2nnc3ccc4ccccc4n23)cc1	-13%	0.3%
88	CCOc1ccccc1NC(=O)Cn1c(=O)n(Cc2ccccc2)c(=O)c2c3c(sc21)CN(C(C)=O)CC3	-0.9%	0.7%
89	Cc1cccc(-c2nc(SCC(=O)NCC3CCCO3)c3c(=O)n(C)c(=O)n(C)c3n2)c1 (stereo not given)	1.0%	1.5%
90	NC(=O)CSc1nc2c(oc3ccccc32)c(=O)n1Cc1ccccc1	-11%	2.2%
91	COc1ccc2c(c1)C(CC(C)=O)N(c1ccc(-c3cnc(OC)nc3)cc1)C(c1ccsc1)=C2 (stereo not given)	5.0%	-0.5%
92	CCCOc1ccc(-c2cccc(NS(=O)(=O)c3cc(OC)ccc3OC)c2)nn1	-1.0%	2.6%
93	CCCCNC(=O)c1cccc(-n2c(C)nc3cccnc32)c1	2.5%	0.0%
94	COc1cccc(C2CC(=O)Nc3cc4c(cc32)OCO4)c1OC(C)C (stereo not given)	0.9%	0.8%
95	CCOC(=O)[C@]12CCC=C1N(Cc1ccc3c(c1)OCO3)C(=O)[C@H](CC(=O)NCCC(C)C)C2	1.6%	0.7%
96	CCCNC(=O)CN1C(=O)COc2ccc(S(=O)(=O)N3CCC(C)CC3)cc21	2.7%	-0.4%

Some of the compounds tested (hit frequency here may not be typical).
